# FEN1 inhibitor – qHTS Assay for the Inhibitors of Human Flap endonuclease 1 (FEN1). P39748. Recombinant FEN1 flap cleavage, fluorescence, 15 min. Potency, µM (titrated, usually from 114 µM), without a hit: at the top dose activity change, negative = inhibition, usual class: inhibitors. 0.35% of 390,000 active. AID 588795, 2011; further: nearly all actives have a fitted effect of over 65% in size
# Target sequence (P39748 whole entry, looked up): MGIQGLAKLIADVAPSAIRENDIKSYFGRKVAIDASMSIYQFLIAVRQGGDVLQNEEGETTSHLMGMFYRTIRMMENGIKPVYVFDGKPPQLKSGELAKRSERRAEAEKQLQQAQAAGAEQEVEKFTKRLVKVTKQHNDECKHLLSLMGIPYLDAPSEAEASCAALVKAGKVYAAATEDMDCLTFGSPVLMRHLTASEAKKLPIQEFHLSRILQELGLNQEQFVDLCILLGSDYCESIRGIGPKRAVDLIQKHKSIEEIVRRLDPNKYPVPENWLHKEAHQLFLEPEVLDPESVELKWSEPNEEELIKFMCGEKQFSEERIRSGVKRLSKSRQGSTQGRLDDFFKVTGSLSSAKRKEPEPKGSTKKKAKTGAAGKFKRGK
#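 In this screen, 50 nM flap DNA substrate was added to 10 nM FEN1 pretreated with compound for 15 min at room temperature; cleavage was followed with reads at 0 and 15 min, and Hill fitting gave concentration–response parameters.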
# N370S GC mod – qHTS Assay for Inhibitors and Activators of N370S glucocerebrosidase as a Potential Chaperone Treatment of Gaucher Disease. 0.092% of 330,000 active. Potency, µM (top dose mostly 59.4 µM), inactives show at the top dose activity change, negative = inhibition, usual class: inhibitors. N370S GC spleen homogenate, 4MU-glucoside fluorescence. Lysosomal acid glucosylceramidase (Homo sapiens), P04062. AID 2101, 2009;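 further: 0% = full enzyme activity and -100% = no enzyme basal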
# * hit, by the source's call; ? = inconclusive; . = no result given; & = joins results of further samples; [ ] = another dose, or the depositor's remark. The call rests on the fitted dose curve; in most records, active means well fitted curve in the direction sought with a large enough effect; inconclusive means small, poorly fitted or top-dose-only effect, or another doubt; inactive means no such curve, though single readings can be large; an effect the other way counts as inactive or inconclusive. Unless noted, on the % scale 0 is the no-effect control and ±100 the full control effect; potency means the concentration at half of the fitted maximal effect.
SMILES | FEN1 inhibitor | N370S GC mod
CCOC(=O)c1ccc(NC(=O)N2CCOc3ccccc32)cc1 | -1% | .
COc1ccc2c(c1)CCc1c(C(=O)N3CCCC3)noc1-2 | 0% | -8%
O=C(c1cc(COc2c(F)cccc2F)on1)N(Cc1ccccc1)CC1CC1 | 3% | 5%
CCOc1ccc(S(=O)(=O)N2CCN=C2c2ccccc2)cc1 | 8% | -28%
O=C(COC(=O)[C@@H]1CC(O)CN1S(=O)(=O)c1ccc2c(c1)OCCO2)Nc1ccccc1F (some centres undefined) | 1% | 3%
N#CCSc1nnc(COc2ccccc2)n1-c1ccccc1 | 1% | 12%
COc1cc(/C=C2\N=C3CCCCCN3C2=O)ccc1O | -6% | -17%
O=S(=O)(c1ccc(SCc2ccccc2)nc1)N1CCCCCC1 | -23% | .
Cc1cc(C)nc(NCC(O)CNc2ccccc2Cl)n1 (centres undefined) | 0% | 6%
O=C(Nc1c2c(nn1-c1ccccc1)CS(=O)(=O)C2)c1cc2ccccc2o1 | -4% | -10%
CCN(C(=O)COC(=O)c1ccc(=O)n(Cc2ccccc2)n1)C1CCS(=O)(=O)C1 (centres undefined) | 2% | -6%
CCc1c(C)nc(N)nc1OCC(F)(F)C(F)F | 1% | 4%[2.35 µM]
Cn1cc(/C=N/n2cnc3scc(-c4ccccc4)c3c2=O)c2ccccc21 | -4% | 0%
COC(=O)c1cccnc1NC(=S)NC1CCCCC1 | 3% | 11%
CN1CCN(c2ccccc2NC(=O)c2ccc(-c3cccc(Cl)c3)o2)CC1 | -35% | -10%
Cc1cc(F)c(Nc2ncnc3cc(OCc4ccccc4)ccc23)cc1O | . | -2%
Cc1ccc(S(=O)(=O)NCC(=O)N2CCCC2)cc1 | -5% | .
CCN(CC)c1ccc(C(=S)NCc2ccccc2)cc1 | -25% | 21%
O=C(COc1ccc(Cl)cc1)NCC(=O)N/N=C/c1cccs1 | 13% | 7%
Cc1cc(C)c(C(=O)N2CCCC(C(=O)c3cc(F)ccc3F)C2)o1 (centres undefined) | -4% | -7%
O=C(O)c1cc(S(=O)(=O)Nc2ccccc2Cc2ccccc2)ccc1Cl | 3% | -3%
COCCNC(=O)C1CC(c2ccccc2C(F)(F)F)=NO1 (centres undefined) | -9% | -4%
COc1cc(OC)cc(C(=O)N[C@H](C(=O)Nc2ccccc2N2CCOCC2)C(C)C)c1 | -13% | .
COc1cc(-n2nnnc2SCC(=O)N2CCN(c3ccc(F)cc3)CC2)c(OC)cc1Cl | -7% | 0%
CN(C)S(=O)(=O)N1CCN(C(=O)N(c2ccccc2)c2ccccc2)CC1 | 4% | 5%
O=C(CSc1nc2c(sc3ccccc32)c(=O)n1-c1ccccc1)NCc1ccco1 | -17% | 3%
COc1cc(CN(C(=O)c2cccc(Cl)c2)c2ccccn2)cc(OC)c1OC | 0% | .
CCOC(=O)c1oc2ccc(Cl)cc2c1NC(C)=O | 13% | -2%
COc1cccc(CNC(=O)COC(=O)CN(C)S(=O)(=O)c2ccc(NC(C)=O)cc2)c1 | 1% | -6%
O=C(Cc1ccccc1)NC(=S)Nc1cccc(C(F)(F)F)c1 | 5% | -8%
Cc1ccc(C)c(NC(=O)C(Sc2ncnc3ccccc23)c2ccccc2)c1 (centres undefined) | 5% | 8%
Nc1cc(N)nc(CS)n1 | -8% | 0%
CCOc1ccc(C(CC(=O)O)NC(=O)COc2ccccc2OC)cc1OC (centres undefined) | 0% | -10%
Cc1ccc(S(=O)(=O)NCC(=O)N(CC(=O)NC2CCCCC2)CC2CCCO2)cc1 (centres undefined) | -13% | 10%
CC(O)c1nc2ccccc2n1CC(=O)N1CCN(c2ccccc2)CC1 (centres undefined) | 3% | -7%
CC(NC(=O)COC(=O)C1CCN(S(=O)(=O)c2ccccc2C(F)(F)F)CC1)c1ccccc1 (centres undefined) | 1% | -1%
CSc1ccccc1NC(=O)NCCCl | 9% | 4%
COC(=O)c1ccc(C(NC(=O)OCc2ccccc2)/C(F)=C/[C@@H](C)C(=O)O)cc1 (some centres undefined) | 16%&1% | 0%
COc1ccccc1N1CCN(C(=O)Nc2cccc(Cl)c2)CC1 | -3% | -2%[12.8 µM]
CCCC(=O)NCc1ccc2c(c1)cc(C)n2C | 4% | -27%
O=C(NCCc1ccccc1)c1ccc(Nc2nc3ccccc3n3nnnc23)cc1 | -4% | .
Cc1ccc(NC(=O)CSc2ccc3nnc(-c4ccccn4)n3n2)cc1 | 8% | 11%
COc1cc(=O)[nH]c(SCC(=O)Nc2ccc3ccccc3c2)n1 | -4% | -10%
COC(=O)C[C@H](NC(=O)Cn1cnc2c(NCc3ccccc3)ncnc21)C(=O)OC | 18% | .
COc1cc(CN2CCN(C(C)C)C(CCO)C2)ccc1OCc1ccccc1 (centres undefined) | -1% | -14%
COc1ccc(CNC(=O)CCN2C(=O)c3ccccc3S2(=O)=O)cc1 | 10% | -3%
Cc1nnc(C)n1/N=C/c1ccc(-c2ccccc2Cl)o1 | -4% | 1%
O=C(COc1cccnc1[N+](=O)[O-])Nc1cc(S(=O)(=O)N2CCCCC2)ccc1Cl | 51%[activator] | ?
CCCCOC(=O)CSCC(=O)N1N=C(c2cccs2)CC1c1ccc(F)cc1 (centres undefined) | -22% | ?
O=[N+]([O-])c1cc(-c2nc(-c3cccnc3)no2)ccc1NCc1ccccc1 | 0% | .
Cc1ccc(NC(=O)c2cccs2)cc1[N+](=O)[O-] | -15% | -7%
O=C(CCC(=O)OCC(=O)c1cccc([N+](=O)[O-])c1)Nc1ccccc1Cl | -3% | -18%
Cc1ccc(S(=O)(=O)N2CCN(C(=O)Cc3ccsc3)CC2)c(C)c1 | 0% | 7%
COc1ccc(N2C(=O)CC(NNC(=O)c3ccco3)C2=O)cc1 (centres undefined) | 0% | 3%
Cc1oc(CC(C)C)cc1C(=O)NCCCC(=O)O | 7% | -6%
CC(OC(=O)Cc1c[nH]c2ccccc12)C(=O)NC1CCCCC1C (centres undefined) | -2% | .
COc1ccc(NC(=O)c2nc[nH]c2C(=O)N2CCC(C)CC2)cc1 | -8% | 11%
COc1ccc(/C=N/NC(=O)c2ccc(Br)cc2)c(OC)c1 | -7% | ?
O=C(Nc1ccccc1F)N1CCc2ccccc2C1 | 30% | -1%
N/C(CCS(=O)(=O)c1ccc(Cl)cc1)=N\OC(=O)c1ccccc1C(F)(F)F | 2% | 5%

# Next part.
SMILES | FEN1 inhibitor | N370S GC mod
COc1ccc(/C=C2\SC(=S)N(CCCC(=O)Nc3ccccc3C(=O)O)C2=O)cc1OC | -19% | 0%
CN1C=CC=C/C1=C1\SC(=S)N(c2ccccc2)C1=O | 0% | -34%
Cc1ccc(OC(=O)NC2CCS(=O)(=O)C2)cc1C (centres undefined) | -19% | 0%
CC(=O)c1sc(C(C)(C)C)cc1NC(=O)CCC(=O)O | -15% | 27%
Cc1cccnc1NC(=S)NC(=O)c1cccs1 | -13% | 5%
O=C(Nc1nc2ccc(S(=O)(=O)N3CCCCC3)cc2s1)c1ccncc1 | -4% | 8%
O=C(c1cn(-c2ccccc2)nc1-c1ccccc1)N1CCN(c2ccccn2)CC1 | -20% | 14%
CCCc1nc(NCc2ccccc2)c(C#N)c2c1CCCC2 | 15% | 7%
O=C1CC(c2ccc(F)cc2)CC2=C1C=Nc1ccccc1N2 (centres undefined) | -2% | 8%
CCOc1ccc(N(CC(=O)NC2CCCC2)C(=O)c2ccc(C)s2)cc1 | -2% | -1%
CCCCNC(=O)CSc1nc2ccsc2c(=O)n1C1CCN(C(=O)OCC)CC1 | 0% | 10%
O=C(O)C1CCN(S(=O)(=O)c2cccc3cccnc23)CC1 | 5% | 0%
N=c1c2c(n(Cc3ccc(F)cc3)c3c1CCC3)CCC2 | 1% | 24%
COc1ccc(Nc2oc(COc3ccc(Cl)cc3)nc2C#N)cc1 | -14% | 1%
C/C(C=O)=C/c1ccccc1 | 14% | -3%
COc1ccc(CCNC(=O)C2CCCN2S(=O)(=O)c2cccc3nsnc23)cc1OC (centres undefined) | -16% | 0%
COc1ccc(C(=O)c2c3ccccc3[n+]([O-])n2CCC(N)=O)cc1 | -12% | -5%
O=C(NCc1n[nH]c(=S)n1-c1ccccc1)c1ccco1 | -4% | 9%
COC(=O)C1=C(C)N(c2ccccc2)C(=S)NC1c1ccccc1C(F)(F)F (centres undefined) | ? | 9%
O=C1/C(=C/c2cccs2)Sc2ccccc21 | -7% | 10%
Cc1nc2nc(SCc3nc4ccccc4[nH]3)[nH]c2cc1Br | 3% | -14%
O=C(c1cccnc1)N1CCC(Oc2ccc(C(=O)N3CCCC(O)C3)cc2)CC1 (centres undefined) | -2% | -2%
Cc1ccc(C(=O)COc2cc(C)nc3nncn23)cc1 | -1% | 0%
COc1cccc(C(=O)Nc2ccc3c(c2)C(=O)N(CC2CCCO2)C3=O)c1 (centres undefined) | 4% | -13%

# Filtered by structure, the compounds so far with a COOH group (seven)
SMILES | FEN1 inhibitor | N370S GC mod
O=C(O)c1cc(S(=O)(=O)Nc2ccccc2Cc2ccccc2)ccc1Cl | 3% | -3%
CCOc1ccc(C(CC(=O)O)NC(=O)COc2ccccc2OC)cc1OC (centres undefined) | 0% | -10%
COC(=O)c1ccc(C(NC(=O)OCc2ccccc2)/C(F)=C/[C@@H](C)C(=O)O)cc1 (some centres undefined) | 16%&1% | 0%
Cc1oc(CC(C)C)cc1C(=O)NCCCC(=O)O | 7% | -6%
COc1ccc(/C=C2\SC(=S)N(CCCC(=O)Nc3ccccc3C(=O)O)C2=O)cc1OC | -19% | 0%
CC(=O)c1sc(C(C)(C)C)cc1NC(=O)CCC(=O)O | -15% | 27%
O=C(O)C1CCN(S(=O)(=O)c2cccc3cccnc23)CC1 | 5% | 0%

# The list continues.
SMILES | FEN1 inhibitor | N370S GC mod
CN(Cc1ccccc1)S(=O)(=O)c1ccc(N2CCOCC2)nc1 | 7% | -3%
O=c1cc(N2CCCCC2)c(-c2ccccc2)nn1Cc1cccc(Cl)c1 | -9% | ?
O=c1c(-c2ccccc2)coc2cc(O)ccc12 | 3% | 13%
Cc1cc(C(=O)NC2CC(C)(C)Cc3c2cnn3-c2cccc(F)c2)n(C)n1 (centres undefined) | 0% | 4%
CCOc1ccc(C(c2c(O)nc(SC)n(C)c2=O)c2c(O)nc(SC)n(C)c2=O)cc1 | -5% | -2%
Cc1cccc(N2CCN(C(=O)c3ccc(NS(=O)(=O)c4c(C)noc4C)cc3)CC2)c1C | 3% | 6%
Cc1cc(C)nc(NC(=O)c2ccc([N+](=O)[O-])c(C)c2)n1 | 1% | 2%
Cc1ccc(OCCC(=O)Nc2c(C)n(C)n(-c3ccccc3)c2=O)cc1 | 12% | 3%
CC1Cc2nc(SCC(=O)N3CCOCC3)n(C)c(=O)c2S1 (centres undefined) | -2% | -1%
COc1cccc(C(=O)NCC(c2cccs2)N2CCOCC2)c1 (centres undefined) | 2% | .
O=[N+]([O-])c1cc(Cl)ccc1-c1nc(-c2ccccc2)no1 | -8% | 8%
O=C(Cc1cccc2ccccc12)Nc1ccc2oc(-c3ccccc3)nc2c1 | -1% | 9%

# Record cards, from the list above. Screens in order: FEN1 inhibitor, N370S GC mod
# Cc1ccc(OCCC(=O)Nc2c(C)n(C)n(-c3ccccc3)c2=O)cc1 across the screens: 12%, 3%
# CC1Cc2nc(SCC(=O)N3CCOCC3)n(C)c(=O)c2S1 (centres undefined) across the screens: -2%, -1%
# O=C(Cc1cccc2ccccc12)Nc1ccc2oc(-c3ccccc3)nc2c1 across the screens: -1%, 9%

# Other results follow.
SMILES | FEN1 inhibitor | N370S GC mod
O=S(=O)(c1ccc(F)c(Cl)c1)N1CCN(C/C=C/c2ccccc2)CC1 | -18% | .
O=C(CNS(=O)(=O)c1ccc(Br)cc1)N1CCN(Cc2ccccc2)CC1 | -1% | -9%
CS(=O)(=O)N(CC(=O)N1CCN(c2ccccc2)CC1)Cc1ccc(Cl)cc1 | -14% | -1%
Cc1c(C(=O)Nc2cccc(Cl)c2)oc2ccc(S(=O)(=O)N3CCOCC3)cc12 | 9% | .
CCOc1ccc(-c2noc(CCCC(N)=O)n2)cc1OC | 0% | 3%[12.8 µM]
C/C=C/C(=O)Nc1cccc(C2=NOC3(C2)C[C@@H](C(N)=O)N(C(=O)/C(C)=C/C)C3)c1 (some centres undefined) | -2% | 20%
COc1ccc(C2NC(=O)c3sc(=S)n(-c4ccccc4)c3N2)cc1 (centres undefined) | 6% | 2%
C/C(CCC1CC(C)OC1=O)=N\NC(N)=O (centres undefined) | 2% | 7%
CC1(C)CC(=O)c2cc(-c3nc(-c4ccc(Br)cc4)cs3)c(=O)n(-c3ccccc3)c2C1 | -9% | .
COc1cc(NS(C)(=O)=O)c(OC)cc1NC(=O)c1ccccc1 | -10% | 4%
Clc1ccc(OCCSCc2nc3ccccc3[nH]2)cc1 | 5% | 26%
O=C(NCc1ccccn1)c1cnc2sccn2c1=O | 8% | 11%

# Not all compounds are listed; most or all hits stand in other tables.
